# Mtb growth: Mycobacterium tuberculosis H37Rv growth inhibition, putative kinase inhibitor library, confirmatory dose response (AID 2842) | M. tuberculosis H37Rv growth inhibition; higher % means a stronger effect; some inactives read as strong as hits | 5.2% of 24,000 active | inhibition, % at 10 µg/mL; hits with a dose series show IC90 in µg/mL;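 active means confirmed in a dose series; inconclusive means mostly over 85% at the one dose but not retested; inactive means below 85% or not confirmed; about a fifth of its hits are not listed in these tables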;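 further: bacteria incubated one week before Alamar blue readout; 0% = bacteria only wells and 100% = bacteria with high antibiotic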
# * hit, by the source's call; ? = inconclusive. Not all compounds are listed; the hit share may differ from the screen's.
# Preview (16 entries):
SMILES,Mtb growth
Cc1cc(NC(=O)NCCCSc2nc3ccccc3o2)no1,29µg/mL*
O=C(Nc1nnc(-c2ccc(F)cc2)s1)c1ccc(Cc2ccccc2)cc1,7%
Cn1c(=O)[nH]c(=O)c2c1nc(N=Nc1c(O)[nH]c3ccccc13)n2CCc1ccccc1,1%
Cc1occc1C(=O)NNC(=O)C1CC1,6%
CCOC(=O)c1c(NC(=O)C2CC(=O)NN2Cc2ccccc2)sc2c1CCC2 (stereo not drawn),-1%
COc1ccc2nc(Nc3nc4cc5c(cc4s3)OCO5)sc2c1,?
Cc1cnc(=O)[nH]c1SCc1cccc2ccccc12,-9%
FC(F)(F)c1ccccc1Nc1nc(-c2ccccc2)c2cc(Br)ccc2n1,-9%
Fc1ccccc1Cn1cc2c(-c3ccccc3)nnc-2c2cc3c(cc21)OCO3,2%
CCCCCNc1nc2c(c(=O)[nH]c(=O)n2C)n1CC(O)COc1cccc(CC)c1 (stereo not drawn),-3%
CC(C)(C)C1CCc2c(sc3nnn(CC(=O)NCc4ccco4)c(=O)c23)C1 (stereo not drawn),22µg/mL*
Cc1ccccc1NC(=O)CN1N=NC2C(=O)N(c3ccc(F)c(Cl)c3)C(=O)C21 (stereo not drawn),-9%
Cc1ccc(N2CC(NC(=O)c3c(F)cccc3Cl)CC2=O)cc1C (stereo not drawn),5%
COc1ccc(C(=O)Nc2c3c(nn2-c2ccc(F)cc2)CS(=O)C3)cc1 (stereo not drawn),6%
COc1ccc(C(=O)NCc2nnnn2-c2cccc(F)c2)c(OC)c1,-6%
Cc1ccc(C)c2[nH]c(=O)c(CCNC(=O)C(C)(C)Oc3ccc(Cl)cc3)cc12,-6%

# The list itself, from the start:
SMILES,Mtb growth
Cc1cc(NC(=O)NCCCSc2nc3ccccc3o2)no1,29µg/mL*
O=C(Nc1nnc(-c2ccc(F)cc2)s1)c1ccc(Cc2ccccc2)cc1,7%
Cn1c(=O)[nH]c(=O)c2c1nc(N=Nc1c(O)[nH]c3ccccc13)n2CCc1ccccc1,1%
Cc1occc1C(=O)NNC(=O)C1CC1,6%
CCOC(=O)c1c(NC(=O)C2CC(=O)NN2Cc2ccccc2)sc2c1CCC2 (stereo not drawn),-1%
COc1ccc2nc(Nc3nc4cc5c(cc4s3)OCO5)sc2c1,?
Cc1cnc(=O)[nH]c1SCc1cccc2ccccc12,-9%
FC(F)(F)c1ccccc1Nc1nc(-c2ccccc2)c2cc(Br)ccc2n1,-9%
Fc1ccccc1Cn1cc2c(-c3ccccc3)nnc-2c2cc3c(cc21)OCO3,2%
CCCCCNc1nc2c(c(=O)[nH]c(=O)n2C)n1CC(O)COc1cccc(CC)c1 (stereo not drawn),-3%
CC(C)(C)C1CCc2c(sc3nnn(CC(=O)NCc4ccco4)c(=O)c23)C1 (stereo not drawn),22µg/mL*
Cc1ccccc1NC(=O)CN1N=NC2C(=O)N(c3ccc(F)c(Cl)c3)C(=O)C21 (stereo not drawn),-9%
Cc1ccc(N2CC(NC(=O)c3c(F)cccc3Cl)CC2=O)cc1C (stereo not drawn),5%
COc1ccc(C(=O)Nc2c3c(nn2-c2ccc(F)cc2)CS(=O)C3)cc1 (stereo not drawn),6%
COc1ccc(C(=O)NCc2nnnn2-c2cccc(F)c2)c(OC)c1,-6%
Cc1ccc(C)c2[nH]c(=O)c(CCNC(=O)C(C)(C)Oc3ccc(Cl)cc3)cc12,-6%
Clc1cccc(CNc2ncnc3nc[nH]c23)c1,11%
Cc1cc(NC(=O)c2ccc(Cl)cc2Cl)nc2c1c(=O)oc1ccccc12,-5%
CCOCCn1c(SCc2ccc(C)cc2)nc2c1c(=O)[nH]c(=O)n2C,15%
CCOC(=O)c1ccccc1NC(=O)CSc1ncc(CO)n1Cc1ccc(OC)cc1,10%
NC(=O)c1ccc(NC(=O)CSc2nc(N)c(NC(=O)c3ccco3)c(=O)[nH]2)cc1,-5%
COC(=O)c1c(NC(=O)c2cc(Cl)ccc2Cl)sc2c1CC(C)(C)NC2(C)C,82%
Cc1ccc(/C(=N\NS(=O)(=O)c2ccc(C)cc2)c2ccc(OCC(C)C)cc2)cc1,28%
CN1C(=O)c2ccc(NC(=O)c3ccc(-c4nc5ccccc5s4)s3)cc2C1=O,-3%
O=C(Nc1nnc(-c2ccccn2)o1)c1cc([N+](=O)[O-])cc([N+](=O)[O-])c1,-17%
SMILES,Mtb growth
Cc1ccc(CSc2nc(-c3cccs3)nc3c2c(=O)n(C)c(=O)n3C)cc1,-4%
O=C(CSc1ccc2nnc(-c3ccc(F)cc3)n2n1)Nc1ccc(Br)cc1,-6%
Cc1ccc(-c2nnc(NC(=O)c3ccc(S(=O)(=O)N(C)C4CCCCC4)cc3)o2)c(C)c1,39µg/mL*
COc1ccccc1C1C(C#N)=C(N)Oc2c1oc(CO)cc2=O (stereo not drawn),-4%
O=C(CCc1ccccc1)Nc1nnc(-c2ccc(Cl)cc2)s1,-3%
Cc1cc2c(cc1C)NC(CC(=O)Nc1cccc(Cl)c1)C(=O)N2 (stereo not drawn),8%
Cc1cc(C)c(NS(=O)(=O)c2ccc3c4c(cccc24)C(=O)N3)c(C)c1,-9%
CNC(=O)C(=O)Nc1cc2c3c(c1)CC(=O)N3CCC2,-7%
O=C(Cc1cccs1)Nc1c(C(=O)Nc2ccccc2)oc2ccccc12,2%
Cc1ccc(NC(=O)c2sc3ncn(CC(=O)N4CCCC4)c(=O)c3c2C)c(C)c1,-4%
Cc1cc(C)c2sc(N3CCN(c4nc5cc(C)cc(C)c5s4)CC3)nc2c1,-2%
O=C(CSc1nc2c(c(=O)n1-c1ccc(Cl)cc1)SCC2)Nc1ccccc1,10%
COc1ccc(CC(=O)Nc2c(C(=O)Nc3ccc(OC)cc3)oc3ccccc23)cc1,62%
COc1ccc(OC)c(-c2nnc(NC(=O)Cc3cccs3)s2)c1,0%
Cc1nnc2ccc(-c3cccc(NC(=O)CCCc4ccccc4)c3)nn12,5%
CCc1ccc(NC(=O)c2oc3ccccc3c2NC(=O)c2cccs2)cc1,4%
O=C(Nc1nnc(-c2ccco2)o1)c1ccccc1,83%
C=CCOC(=O)c1c2nc3ccccc3nc2n2c1[nH]c(=O)c1ccc(C(=O)OC)cc12,80%
Cc1nnc(SCc2cccc(C(F)(F)F)c2)n(N)c1=O,11%
COc1ccc(Cl)cc1NC(=O)CSc1nc(N)c(NC(=O)c2ccccc2)c(=O)[nH]1,-3%
O=C(CSc1ccc2nnc(-c3ccc(Cl)cc3)n2n1)NCc1ccccc1,5%
Cc1ccc(C)c(NS(=O)(=O)c2ccc3[nH]c(=O)cc(C)c3c2)c1,5%
CCCc1cc(=O)[nH]c2nnc(SCC(=O)Nc3nccs3)n12,-3%
O=C(CSc1nc2c(c(=O)n1-c1ccc(Cl)cc1)SCC2)Nc1ccccc1F,13%
COCCn1c(SCC(=O)Nc2cc(C)on2)nc2c([nH]c3ccccc32)c1=O,16%
SMILES,Mtb growth
Cc1cc(NC(=O)CSc2ccnc3c2c(=O)n(C)c(=O)n3C)no1,-1%
Cc1ccc(C)c2[nH]c(=O)c(CCNC(=O)c3cccc([N+](=O)[O-])c3)cc12,-2%
Cc1c(C)n2c(SCC(=O)Nc3cccc([N+](=O)[O-])c3)nnc2[nH]c1=O,-7%
Cc1ccc(NC(=O)c2oc3ccccc3c2NC(=O)C2CC2)cc1C,8%
O=C(Nc1nc2c(s1)CCCC2)c1ccc(C(=O)c2ccccc2)cc1,11%
Fc1cccc(Cl)c1CSc1nnc2ccc(-c3ccc4c(c3)OCO4)nn12,-4%
Cc1ccc(-n2ncc3c(NNC(=O)c4ccc(Cl)cc4Cl)ncnc32)cc1C,6%
CCCCC(=O)NCCc1cc2c(OC)ccc(OC)c2[nH]c1=O,2%
CC(NS(=O)(=O)c1cc2c3c(c1)CCC(=O)N3CCC2)c1ccccc1 (stereo not drawn),3%
Cc1nc2c(ccc3nc(Nc4nc5ccc(C(C)C)cc5s4)sc32)s1,52%
CCOc1ccc(C(=O)Nc2c(N)nc(SCC(=O)NC3CCCC3)[nH]c2=O)cc1,-5%
COc1ccc(CC(=O)Nc2cc(C)c3c(=O)oc4ccccc4c3n2)cc1OC,-5%
COc1cccc2cc(C(=O)NC(C)=O)c(=Nc3cccc4ccccc34)oc12,-12%
COc1cc2cc(C3CC(c4ccco4)=NN3)c(Cl)nc2cc1OC (stereo not drawn),2%
Nn1c(SCC(=O)Nc2ccc(OC(F)F)cc2)nnc1-c1ccncc1,-7%
CCn1c(SCC(=O)Nc2nc3ccc(C)cc3s2)nc2c(c1=O)SC(C)C2 (stereo not drawn),5%
COc1cccc(-c2csc(NC(=O)C3CC3)n2)c1,60%
CCOC(=O)c1ccccc1NC(=O)CSc1ncnc2c1cnn2-c1ccc(F)cc1,7%
CCCNc1cc(C(C)C)nc2c(-c3ccccc3)cnn12,6%
COc1ccccc1C1CC(c2cccc(NS(C)(=O)=O)c2)=NN1S(=O)(=O)c1ccc(C)cc1 (stereo not drawn),0%
COC(=O)c1ccc2nc(NC(=O)c3cccc(OC)c3)sc2c1,5%
NC(=O)CSc1cc(C(F)(F)F)c2cc3c(cc2n1)OCO3,-9%
CCOC(=O)c1ccc(NC(=O)CSc2nccn2-c2cccc(C)c2)cc1,-2%
O=C(Cn1cnc2scc(-c3ccc4ccccc4c3)c2c1=O)NCc1ccccc1,-6%
COC(=O)CSC(C)C(=O)Nc1nnc(-c2ccc(OC)cc2)s1 (stereo not drawn),-2%
SMILES,Mtb growth
COc1ccc(-c2nnc3c4cc(F)ccc4n(Cc4ccc(F)cc4)cc2-3)cc1,10%
Cc1ccc(S(=O)(=O)Nc2ccccc2C(=O)Nc2nc(-c3ccc(C)cc3C)cs2)cc1,9%
COc1ccc(Nc2nc3ccc(SC)cc3s2)cc1,9%
Cc1cc(C)cc(C(=O)NCCc2cc3cc(C)c(C)cc3[nH]c2=O)c1,-6%
O=C(Nc1nnc(-c2ccc(Br)cc2)o1)c1cc(Cl)ccc1Cl,2.7µg/mL*
Cn1c(=O)[nH]c(=O)c2c1nc(NC1CCCC1)n2Cc1ccccc1,-1%
Cc1cccc(C(=O)Nc2c(C(=O)Nc3ccc4c(c3)OCO4)oc3ccccc23)c1,-8%
O=C(Nc1cccc(-c2ccc3nnc(-c4cccnc4)n3n2)c1)c1ccc(F)cc1,2%
CC(=O)Cn1cnc2c(nnn2-c2cccc(F)c2)c1=O,-11%
Cc1ccc(S(=O)(=O)Nc2cccc(C(=O)Nc3sc(C)c(C)c3C#N)c2)cc1,-11%
O=c1oc2ccccc2cc1-c1csc(Nc2nc3c(F)cccc3s2)n1,16%
CCCCC(=O)Nc1c(C(=O)Nc2ccc(OC)c(OC)c2)oc2ccccc12,1%
Cc1cc(C)cc(NC(=O)CSc2nnc(Cn3c(=O)sc4ccccc43)n2C)c1,-3%
Cc1nc(CNS(=O)(=O)c2cc([N+](=O)[O-])ccc2C)cs1,-5%
O=C(CSc1ncc(S(=O)(=O)c2ccccc2)c(=O)[nH]1)Nc1cc(F)ccc1F,-9%
Cc1ccccc1NC(=O)Cc1csc(NS(=O)(=O)c2ccc(Cl)cc2)n1,-5%
Cc1ccc(C)c(NC(=O)c2cnc3sccn3c2=O)c1,-2%
COc1ccccc1N1C(=O)C(Cl)=C(Nc2cccc(O)c2)C1=O,3%
N#Cc1c(NC(=O)c2sc3ccccc3c2Cl)sc2c1CCN(Cc1ccccc1)C2,-3%
O=C(NNc1nc2c(F)cc(F)cc2s1)C1COc2ccccc2O1 (stereo not drawn),7%
c1cn(CCCNc2ncnc3nc[nH]c23)cn1,4%
CCOC(=O)c1ccc(NC(=O)CSc2nc3c(c(=O)n2-c2ccccc2OC)SCC3)cc1,5%
COc1ccc(C(=O)Nc2c(N)nc(SCC(=O)N3CCCc4ccccc43)[nH]c2=O)cc1OC,-12%
COc1ccc(C(=O)COC(=O)c2cc(=O)[nH]c3ccccc23)cc1,-5%
Cc1ccc2cc(CCNC(=O)c3ccc4c(c3)OCO4)c(=O)[nH]c2c1C,0%
SMILES,Mtb growth
O=C(Nc1nnc(-c2ccc(Br)cc2)s1)c1ccccc1[N+](=O)[O-],5%
Nc1nc(SCC(=O)O)[nH]c(=O)c1NC(=O)c1ccccc1F,-4%
O=C(Nc1c(C(=O)Nc2ccc(F)c(Cl)c2)oc2ccccc12)c1ccccc1[N+](=O)[O-],7%
CCOC(=O)c1c(NC(=O)c2cc(Cl)sc2Cl)sc2c1CC(C)(C)NC2(C)C,8%
CCOC(=O)c1nn(-c2ccc(C)cc2)c(=O)c2c(NC(=O)c3ccc(OC)cc3)scc12,-9%
NC(=O)c1ccc(NC(=O)CSc2nc(N)c(NC(=O)c3ccc(Br)o3)c(=O)[nH]2)cc1,3%
COc1ccc(C(=O)c2cn(Cc3cccc(F)c3)c3cc4c(cc3c2=O)OCCO4)cc1,1%
O=C1Nc2ccccc2Oc2ccc(NS(=O)(=O)Cc3ccc(F)cc3)cc21,10%
Cc1ccc2cc(CCNC(=O)c3ccc(S(=O)(=O)N4CCCCC4)cc3)c(=O)[nH]c2c1,-2%
CC(=O)NC1C(Oc2ccc(C(C)=O)cc2)OC(CO)C(O)C1O (stereo not drawn),-7%
CC(=O)CSc1nc2c([nH]c3ccccc32)c(=O)n1-c1cc(C)ccc1C,22µg/mL*
CCc1nnc(NC(=O)CSc2nnc(CNC(=O)c3ccco3)o2)s1,-6%
O=C(/C=C/c1cccc([N+](=O)[O-])c1)Nc1ccc2c(c1)C(=O)NC2=O,2%
CCCCNc1ncnc(N)c1[N+](=O)[O-],-5%
CC(C)(C)NC(=O)Nc1nnc(SCC(N)=O)s1,-2%
CCOC(=O)C1=C(C)NC(=O)NC1c1ccc(C)cc1 (stereo not drawn),-4%
COC(=O)c1sc2ccccc2c1NC(=O)c1ccccc1C,-9%
COc1ccc(/C=C/C(=O)Nc2ccc(S(=O)(=O)N3CCCCC3)cc2)cc1,5%

# Screens deposited in PubChem by Southern Research Institute.
